Compound activity (PubChem BioAssay)
Sa growth inh – blocks Staphylococcus aureus growth. S. aureus RN4220 growth, OD600, 20 h, 42 °C; hits give low values. relative growth, % (test concentration not listed). 170,000 compounds, 0.53% hits;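 active means growth at 42 °C up to 50% and 20 or more points under that at 30 °C, or under 10% at both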;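 further: 300 nL library stock went into each well; scaled to the means of positive and negative controls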
HCMV UL50-53 inh – cytomegalovirus nuclear egress complex inhibition; HTRF UL50-UL53 interaction, normalized percent inhibition; inhibition, % (concentration not given with the values); 190,000 compounds, 0.15% hits; AID 1918969;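 active means both replicates at 50% or more, plus weaker picks with an unusually low signal ratio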;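 further: stock transfer was 100 nL into about 20 µL; 0% = negative control wells and 100% = wells with untagged competitor protein; inactives centre near -12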
GIV Gai3 FP – GIV-Galpha-i interaction inhibition; P08753; Galpha-i3/FITC-GIV peptide fluorescence polarization, 90 min; hits give low values; scaled: aluminum fluoride 0%, vehicle 100%; percent of control (FP), % (test concentration not listed); 210,000 compounds, 0.42% hits; AID 1224905;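 active means replicate mean at 85% of control or lower, very high polarization wells dropped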;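 further: wells of about 15 µL received 100 nL stock; the first replicate is given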
Target sequence (P08753 whole entry, looked up): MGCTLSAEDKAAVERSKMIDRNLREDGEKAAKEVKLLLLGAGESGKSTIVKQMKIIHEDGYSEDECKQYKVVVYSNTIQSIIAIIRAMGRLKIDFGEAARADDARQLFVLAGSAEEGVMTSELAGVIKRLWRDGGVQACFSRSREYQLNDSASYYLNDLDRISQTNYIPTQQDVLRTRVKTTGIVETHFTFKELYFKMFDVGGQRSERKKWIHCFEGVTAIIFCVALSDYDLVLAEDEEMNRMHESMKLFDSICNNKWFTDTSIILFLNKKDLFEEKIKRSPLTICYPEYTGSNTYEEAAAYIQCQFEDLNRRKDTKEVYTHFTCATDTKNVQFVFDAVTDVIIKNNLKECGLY
Sa growth inh second temp – further read-out of Sa growth inh, marked with its call; relative growth, %; measured here: growth at 30 °C;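 optical density after 20 h as mean of two plates; 100% = untreated growth and lower means inhibition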
The depositor's hits bear a star; . = no result given; & = joins results of further samples.

#1 CC(=O)NC1CCC(C(=O)O)(c2ccccc2)C1 (stereo unspecified)
#2 CCn1cc(C(=O)NC2CCCCCC2)c(=O)c2cc(S(=O)(=O)N(C)C)ccc21
#3 COc1ccc(OC)c(NC(=O)CCNS(=O)(=O)c2ccc3[nH]c(=O)oc3c2)c1
#4 O=C(O)C1Cc2c([nH]c3ccccc23)C(c2ccccc2Br)N1 (stereo unspecified)
#5 Cc1ccc(S(=O)(=O)NC2=NCN(C)CN2)cc1
#6 COc1ccc(Cn2c(SCc3ccc(C(=O)NC4CCCCC4)cc3)nc3ccncc32)cc1
#7 O=c1c2c([nH]c3ccccc13)CCC2
#8 COc1ccccc1C=NC12CN3CN(CN(C3)C1)C2
assay / entry	1	2	3	4	5	6	7	8
Sa growth inh	86	107	93	.	97	97	66	111
Sa growth inh second temp	82	95	87	.	79	88	101	109
HCMV UL50-53 inh	-13	.	-8	-4	.	-16	7	2
GIV Gai3 FP	.	104	105	100	104	98	102	97

#9 Cc1cnc(=O)[nH]c1SCc1cccc(C(F)(F)F)c1
#10 O=C(NCCCc1ccccc1)C1c2ccccc2Oc2ccccc21
#11 COc1ccc(-c2noc(CSc3nnc(-c4ccncc4)n3CC(C)C)n2)cc1
#12 O=C(CSc1nc(N2CCCCC2)nc(N2CCCCC2)n1)N1CCc2ccccc21
#13 COc1cccc2c1Oc1ncccc1N(c1ccc(C(=O)NCc3ccccc3Cl)s1)C2
#14 [N-]=[N+]=Nc1ccc(C(=O)CSC[C@H](NC(=O)CC[C@H](N)C(=O)O)C(=O)NCC(=O)O)cc1
#15 CCn1c(C)[n+](CC)c2ccc(S(N)(=O)=O)cc21
#16 Cc1noc(C)c1COc1ccc(C(=O)NC2=NCCS2)cc1
assay / entry	9	10	11	12	13	14	15	16
Sa growth inh	96	91	111	101	115	.	91	108
Sa growth inh second temp	91	95	94	106	103	.	75	86
HCMV UL50-53 inh	-21	4	2	4	.	-23	-16	-2
GIV Gai3 FP	105	.	105	104	110	109	98	.

Results in sequence from the entries so far.
HCMV UL50-53 inh for entries 1 to 12 → -13, ., -8, -4, ., -16, 7, 2, -21, 4, 2, 4
Sa growth inh for entries 1 to 12 → 86, 107, 93, ., 97, 97, 66, 111, 96, 91, 111, 101
GIV Gai3 FP for entries 1 to 12 → ., 104, 105, 100, 104, 98, 102, 97, 105, ., 105, 104

Continuation:
#17 CCN(CC)C(=O)C1CCN(S(=O)(=O)c2c(C)noc2/C=C/c2cccc(OC)c2)CC1
#18 O=C(c1cccs1)c1cn(CCOc2ccccc2Cl)c2ccccc12
#19 C/C(=N\OCc1nnc(-c2cccs2)o1)c1cc2ccccc2o1
#20 CC(C)Cn1c(SCCc2ccccc2)nnc1-c1cccc(S(=O)(=O)N2CCOCC2)c1
#21 COc1ccccc1OCC(O)CO (stereo unspecified)
#22 Cc1ccc(S(=O)(=O)NCc2ccc(C(=O)NCCc3cccc(C)c3)cc2)cc1
#23 Cc1nc(-c2ccc(NC(=O)C(C)(C)C)cc2)c(-c2ccccc2)o1
#24 CC1=C(C(=O)Nc2ccc(Br)cn2)C(c2cccc([N+](=O)[O-])c2)C2=C(CCCC2=O)N1 (stereo unspecified)
assay / entry	17	18	19	20	21	22	23	24
Sa growth inh	106	103	96	89	91&92	117	106	.
Sa growth inh second temp	90	92	80	94	91&87	90	100	.
HCMV UL50-53 inh	.	3	8	-14	-41&-14&-17&-17	.	0	-28
GIV Gai3 FP	104	100	.	.	105	108	103	102

#25 Cc1nn(-c2ccccc2)c(C)c1-c1nnc(C(F)(F)F)o1
#26 N#CCc1nnc(N2CCOCC2)n1-c1ccccc1
#27 COc1ccc(Cl)cc1CNCCSc1nnnn1C
#28 CCc1ccc(NC(=O)CC2C(=O)N(c3ccc(Cl)cc3)C(=O)N2Cc2ccco2)cc1 (stereo unspecified)
#29 Cc1cccc(N(C)Cc2cc(=O)n3oc(C)cc3n2)c1
#30 COc1ccc(CNC(=O)CSc2nc3ccc(OC)cc3[nH]2)cc1
#31 CCN(C(=O)C1CCC(C(=O)N(CC)c2ccccc2)CC1)c1ccccc1 (stereo unspecified)
#32 Cc1ccccc1OCC(=O)Nc1ncccn1
assay / entry	25	26	27	28	29	30	31	32
Sa growth inh	106	110	113	85	109	.	109	114
Sa growth inh second temp	99	98	90	70	91	.	97	85
HCMV UL50-53 inh	-1	-26	-13	.	-21	-18	-4	-10
GIV Gai3 FP	104	.	108	107	103	99	104	.

#33 O=C(Cn1ncn2c(cc3ccccc32)c1=O)N1CCN(c2ccccn2)CC1
#34 O=C(Nc1ccc(-c2cnco2)cc1)c1ccc(F)cc1F
#35 CCCCn1c(=NC(=O)c2ccccc2)c(C(=O)OCC)cc2c(=O)n3ccccc3nc21
#36 c1ccc(Cc2nnc3sc(-c4c[nH]c5ccccc45)nn23)cc1
#37 Cc1nn(C(C)(C)C)c2c1C(c1ccccn1)C1=C(CC(C)(C)CC1=O)N2 (stereo unspecified)
#38 CC(/C=C/c1c[nH]c2ccccc12)=C\C(=O)O
#39 CCC(C)N(C(=O)c1c(F)c(F)c(F)c(F)c1F)C(C)CC (stereo unspecified)
#40 COc1cc(C(=O)Nc2ccc(O)cc2)c2ccccc2n1
assay / entry	33	34	35	36	37	38	39	40
Sa growth inh	.	118	101	.	94	97	114	104
Sa growth inh second temp	.	90	89	.	86	82	95	76
HCMV UL50-53 inh	-20	-36	.	-6	0	-15	-12	-14
GIV Gai3 FP	96	105	99	100	.	120	99	.

Fetched one by one from the list above:
#36 c1ccc(Cc2nnc3sc(-c4c[nH]c5ccccc45)nn23)cc1
#38 CC(/C=C/c1c[nH]c2ccccc12)=C\C(=O)O
assay / entry	36	38
Sa growth inh	.	97
Sa growth inh second temp	.	82
HCMV UL50-53 inh	-6	-15
GIV Gai3 FP	100	120

Entries shown so far containing bromine:
#4 O=C(O)C1Cc2c([nH]c3ccccc23)C(c2ccccc2Br)N1 (stereo unspecified)
#24 CC1=C(C(=O)Nc2ccc(Br)cn2)C(c2cccc([N+](=O)[O-])c2)C2=C(CCCC2=O)N1 (stereo unspecified)
assay / entry	4	24
Sa growth inh	.	.
Sa growth inh second temp	.	.
HCMV UL50-53 inh	-4	-28
GIV Gai3 FP	100	102

Further results
#41 Cc1cc(C)c(S(=O)(=O)Nc2ccc(-c3ccc(N4CCOCC4)nn3)cc2)cc1C
#42 Cc1nc2n(CC(=O)N3CCCCC3)c3ccccc3n2n1
#43 O=C(Nc1ccc(OCc2cc(=O)n3ccsc3n2)cc1)c1ccc(F)cc1
#44 Cc1cccc(NC(=O)Cc2coc3ccc(C)cc23)c1
#45 CCCn1cc(C(CC(=O)O)C(=O)O)c2ccccc21 (stereo unspecified)
#46 C[C@]1(NC(=O)CN2CCCCC2)CCCCC1c1ccc(O)cc1 (stereo partly specified)
#47 NC1C2CC3CC(C2)CC1C3 (stereo unspecified)
#48 Cc1cccc(NC(=O)CSc2ccc(-c3sc(-c4ccccc4)nc3C)nn2)c1C
assay / entry	41	42	43	44	45	46	47	48
Sa growth inh	.	98	112	91	83	92	81	97
Sa growth inh second temp	.	91	86	88	88	91	97	87
HCMV UL50-53 inh	-29	-1	-33	.	.	-12	-11	.
GIV Gai3 FP	102	.	99	99	114	97	.	102

#49 Nc1nonc1C(=O)OCC(=O)c1ccc(Cl)cc1
#50 Cc1nn(CC(=O)N2CCCC2)c(=O)c2cc3ccccc3n12
#51 CC1CCCCN1C(=O)CSc1c2c(nc3cc(Cl)ccc13)CCCC2 (stereo unspecified)
#52 Cc1occc1-c1nnc2sc(-c3cccc(F)c3)nn12
#53 COc1cc(S(=O)(=O)NCCc2c(C)[nH]c3ccccc23)c(C)cc1C
#54 CCn1c(O)c(C(C)=Nc2ccccc2C(=O)NC2CC2)c(=O)n(CC)c1=S
#55 CN(C)c1ccc(-c2nc3ccc(C(=O)O)cc3s2)cc1
#56 Cc1c(C(=S)NC(=O)C2CC2)c(=O)n(-c2ccccc2)n1C
assay / entry	49	50	51	52	53	54	55	56
Sa growth inh	80	109	100	76	100	103	92	111
Sa growth inh second temp	85	98	83	79	70	105	47	102
HCMV UL50-53 inh	-5	-36	-21	.	2	26	-74	-44
GIV Gai3 FP	.	105	103	102	103	.	98	.

#57 Cc1ccccc1C(=O)N1CCN(c2cc(=O)n3nc(-c4ccccc4)sc3n2)CC1
#58 COc1ccc(CN(C(=O)/C=C\C(=O)O)C2CC(=O)N(c3ccccc3)C2=O)cc1 (stereo unspecified)
#59 O=C(OC1(C#CCN2CCCCC2)CCCCC1)c1ccccc1
#60 O=C(CCn1c(=O)c2cccn2c2cccnc21)N1CCCCCC1
#61 COc1ccc(NC(=O)c2ccn[nH]2)cc1
#62 O=S(=O)(c1ccccc1)c1nc(-c2ccc(F)cc2)oc1N1CCCCCC1
#63 CCc1ccccc1N1C(=O)N(Cc2ccccc2C)c2ccccc2S1(=O)=O
#64 CCC(Sc1nc(-c2ccc(F)cc2)nc2c1Cc1c(CO)cnc(C)c1O2)C(=O)Nc1ccc(F)cc1 (stereo unspecified)
assay / entry	57	58	59	60	61	62	63	64
Sa growth inh	.	80	64	84	90	97	100	103
Sa growth inh second temp	.	88	45	85	82	89	102	95
HCMV UL50-53 inh	-11	-21	-8	-17	.	-21	.	.
GIV Gai3 FP	107	101	.	100	108	107	107	102

#65 COc1ccc(C(=O)COC(=O)C23CC4CC(CC(C4)C2)C3)cc1
#66 O=C1NC(=Nc2ccc(F)cc2)S/C1=C/c1ccc(N2CCCCCC2)o1
#67 Cc1oc(S(=O)(=O)N2CCCC2)cc1C(=O)Nc1ccccc1
#68 CCOc1ccc(C(=O)Nc2ccc3oc(-c4ccncc4)nc3c2)cc1
#69 Cc1cc(NC(=O)COCc2cc(-c3ccco3)on2)no1
#70 S=c1[nH]nc(-c2ccncc2)n1-c1ccc2c(c1)OCCO2
#71 Brc1ccc(C2=Nn3c(nnc3-c3cccnc3)SC2)cc1
#72 C=CCOc1ccc(CNn2cn[nH]c2=S)cc1
assay / entry	65	66	67	68	69	70	71	72
Sa growth inh	109	18	91	84	107	124	.	101
Sa growth inh second temp	100	6	93	87	92	102	.	90
HCMV UL50-53 inh	7	-28	-22	-34	-8	-5	-10	-5
GIV Gai3 FP	.	-78*	101	100	107	106	97	101

#73 Brc1cccc(-c2cn3ccsc3n2)c1
#74 COc1cccc(C(c2c(O)cc(C)n(Cc3ccco3)c2=O)N2CCN(c3ccccc3)CC2)c1 (stereo unspecified)
#75 CCOc1ccc(-n2c(SCC)nc3c([nH]c4ccccc43)c2=O)cc1
#76 CCC1CCCCN1C(=O)c1sc(-n2nc(C)c(Cc3ccccc3)c2C)nc1C (stereo unspecified)
#77 Cn1nccc1NC(=O)c1ccc(Cl)c(Cl)c1
#78 COc1ccc(C)cc1S(=O)(=O)n1ccnc1
#79 N#Cc1c[nH]n2c(NC3CCCC3)c(-c3cccc(Cl)c3)nc12
#80 Cc1onc(-c2ccccc2)c1C(=O)N=C(N)c1ccc(Cl)cc1
assay / entry	73	74	75	76	77	78	79	80
Sa growth inh	88	97	86	109	101	.	112	105
Sa growth inh second temp	66	92	84	86	90	.	74	82
HCMV UL50-53 inh	-7	.	.	-21	-36	-27	-6	-6
GIV Gai3 FP	110	104	120	104	103	102	104	101

#81 CNCc1ccc(-c2ccc(Cl)cc2Cl)o1
#82 COc1ccc(C(=O)N2CCn3cccc3C2c2ccccc2)cc1OC (stereo unspecified)
#83 Cc1cccc(N=c2scc(-c3cc4ccccc4o3)n2C2CC2)c1
#84 Cc1nc(N(C)C)cc(N2CCN(C(=O)c3ccc(Cl)cc3)CC2)n1
#85 Cc1ccc(C(=O)C2CCNCC2)cc1
#86 COC(=O)c1scc(C)c1NC(=O)C1CC1
#87 O=C1CCCN1C(=O)CSc1nc2sc3c(c2c(=O)n1Cc1ccco1)CCCC3
#88 Cc1ncc(CO)c2c1Oc1nc(-c3ccc(Cl)cc3)nc(SCC(=O)N3CCCCC3)c1C2
assay / entry	81	82	83	84	85	86	87	88
Sa growth inh	.	101	102	.	106	94	94	102
Sa growth inh second temp	.	73	84	.	114	84	92	92
HCMV UL50-53 inh	-32	-24	12	-28	11	-20	2	.
GIV Gai3 FP	104	106	.	101	105	99	.	103

#89 CC(C)c1ccc2[nH]c(O)c(N=NC(=O)c3nn(C)c(=O)c4ccccc34)c2c1
#90 Cc1cc(C)c(N=C(N)NN)cc1C
#91 CCn1c(=O)c2cc(C(=O)N(Cc3ccco3)C3CCCCC3)sc2c2ccccc21
#92 O=C(c1ccccc1)C(C(=O)N1CCCCC1)n1ccccc1=O (stereo unspecified)
#93 CC1CN(c2ccc(Cl)nn2)CC(C)O1 (stereo unspecified)
#94 CCOC(=O)c1cnc2ccc(OCC)cc2c1NC(C)CC (stereo unspecified)
#95 C=CCNc1nc(C(=O)OCc2cccc(S(=O)(=O)N(C)C)c2)cs1
#96 O=c1c2ccccc2nc(-c2ccccc2)n1C1CCS(=O)(=O)C1 (stereo unspecified)
#97 Cc1occc1-c1nnc(SCC(=O)NCC(=O)Nc2ccc(F)cc2)n1Cc1ccccc1
#98 O=C(CN1C(=O)CC(c2ccccc2)Sc2ccccc21)c1ccccc1 (stereo unspecified)
assay / entry	89	90	91	92	93	94	95	96	97	98
Sa growth inh	90	102	102	93	96	103	83	103	93	95
Sa growth inh second temp	100	80	83	84	90	87	96	92	78	64
HCMV UL50-53 inh	-26	-31	-27	2	-15	.	-22	-7	-34	.
GIV Gai3 FP	.	103	101	97	103	99	.	105	.	103
